supercomplex z: modulators of mitochondrial supercomplex assembly, cell-based, luminescence, Hoechst nuclei count (AID 1645838) | Cells, luminescence/Hoechst cell count ratio, supercomplex reporter; stronger effect = higher value | z-score at 11 µM unless noted | hit rate 5% among 2,000;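 active = mean z-score of two plates above 1.96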;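 note: control cybrid cells; higher means more mitochondrial supercomplex formation; U2OS-based cells read after two days; 0 = mean of sample wells on the plate; doses worked out from stocks diluted about 900-fold with the highest of each compound shown; many of its hits are not listed in these tables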
supercomplex z cell count: also measured in supercomplex z; calls as there; cell count; measured here: cell number, Hoechst nuclei count;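 nuclei per well as mean of two plates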
An asterisk follows results filed as active; i = inactive; / = not tested or not shown. This is a subset; count on the stated rates, not on these rows.

mol | supercomplex z | supercomplex z cell count
CCCCCCOC(=O)NC(=N)c1ccc(NCc2nc3cc(C(=O)N(CCC(=O)OCC)c4ccccn4)ccc3n2C)cc1 | 0.28 | 3728
CN1CCC(c2c(O)cc(O)c3c(=O)cc(-c4ccccc4Cl)oc23)C(O)C1 (stereo unspecified) | i | /
CS(=O)(=O)N1CCN(Cc2cc3nc(-c4cccc5[nH]ncc45)nc(N4CCOCC4)c3s2)CC1 | i | /
CC#C[C@]1(O)CC[C@@H]2[C@@H]3CCC4=CC(=O)CCC4=C3C(c3ccc(N(C)C)cc3)C[C@@]21C (stereo partly specified) | -0.98 | 4852
CNc1nc(-c2ccc3c(N)n[nH]c3c2)cc(N2CC(C(=O)NC3CCCCC3)CCC2C)n1 (stereo unspecified) | 0.73 | 4532
O=C(O)C(Cc1ccc2c(c1)oc1ccccc12)NCP(=O)(O)O (stereo unspecified) | 0.53 | 6028
COc1ccc(Br)c(-c2nc3ccccc3c(=O)o2)c1 | i | /
O=C(O)C=Cc1ccc(Cn2ccnc2)cc1 | 0.11 | 5552

Rewritten with the structure last: 4 of the compounds above.
supercomplex z	supercomplex z cell count	SMILES
i	/	CN1CCC(c2c(O)cc(O)c3c(=O)cc(-c4ccccc4Cl)oc23)C(O)C1 (stereo unspecified)
i	/	CS(=O)(=O)N1CCN(Cc2cc3nc(-c4cccc5[nH]ncc45)nc(N4CCOCC4)c3s2)CC1
-0.98	4852	CC#C[C@]1(O)CC[C@@H]2[C@@H]3CCC4=CC(=O)CCC4=C3C(c3ccc(N(C)C)cc3)C[C@@]21C (stereo partly specified)
0.73	4532	CNc1nc(-c2ccc3c(N)n[nH]c3c2)cc(N2CC(C(=O)NC3CCCCC3)CCC2C)n1 (stereo unspecified)

High-throughput results (PubChem)
